Bioassay records (PubChem BioAssay)
D2 potentiator – positive allosteric modulators of human D2 dopamine receptor. potentiation, % (no concentration beside the values). hit rate 0.23% among 360,000. DiscoveRx D2 beta-arrestin cells, luminescence, 90 min; 100% = 57 uM dopamine signal. P14416. AID 624464; active = potentiation of 50% or more; inconclusive = 30% to 50%; inactive = 30% or less;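 also: compound concentration not given in the record; tested on top of an EC20 dose of dopamine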
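PathHunter beta-arrestin assay in DiscoveRx D2 cells. Compounds were added with an EC20 of dopamine (50 nM final) for 90 min at 37 deg C. Luminescence was read 1 h after detection reagent, with 57 uM dopamine as the EC100 control.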
TRPML1 blocker – inhibitors of human TRPML1 channel | Q9GZU1 | TRPML1-inducible cells, Ca2+ dye fluorescence, FDSS; stronger effect = lower value; inhibition of EC80 agonist-evoked calcium signal | activity change, negative = inhibition, % (concentration not given with the values) | hit rate 0.02% among 390,000; in the data active means activity change below about -50%; inconclusive means about -30% to -50%; inactive means above about -30%;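 also: stimulus is agonist 54-4 at its EC80 concentration; % is scaled to controls: 0 for no effect and ±100 for the full control effect; compound concentration not given in the record; the text of the record puts the active cut at -80%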
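TRPML1-DL cells, Tet-induced overnight (~16 h, 37 °C) at 1,500 cells/well, were loaded with Ca8 no-wash dye plus quencher for 45-90 min at room temperature. Compounds were pinned during FDSS kinetic reading; agonist 54-4 at EC80 (4 uM final) then added.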
TRPML1 ag – human mucolipin-1 channel agonism; activation, % (test concentration not listed); hit rate 0.12% among 410,000; Q9GZU1; TRPML1-expressing cells, Ca2+ dye fluorescence, FDSS; host cell line not named in the record; reference of the full effect not given here; in the data active = activation above about 50%; inconclusive = about 30% to 50%; inactive = below about 30%; also: 0% is about no effect; the text of the record puts the active cut at 80%
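Kinetic FDSS Ca2+ read in Tet-induced TRPML1-DL cells (ABD Ca8 dye plus quencher, 45-90 min RT loading): baseline, then compound, then 110 s agonist window; EC80 agonist 54-4 at 4uM final added afterwards for a 110 s antagonist window.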
Six1-Eya2 inh – Six1/Eya2 interaction inhibition | AID 651725 | hit rate 0.56% among 360,000 | Q15475+O00167 | activity change, % (no concentration beside the values) | AlphaScreen GST-Six1/His-Eya2 binding, biochemical; stronger effect = lower value; control for the full effect not named in the record; in the data active = activity change below about -65%; inconclusive = about -30% to -65%; inactive = above about -30%; also: % is scaled to controls: 0 for no effect and ±100 for the full control effect; compound concentration not given in the record
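Six1/Eya2 binding was read as AlphaScreen signal after compounds were pinned into GST-Six1 plus His-tagged Eya2 (5X stock 250/500 nM) in pH 8.0 Tris/NaCl/TCEP buffer, beads added, then incubated 1 h, 37 C, dark.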
CtBP-E1A inh – CtBP/E1A binding inhibition; AlphaScreen GST-E1A/His-CtBP binding, 1536-well; stronger effect = lower value; control for the full effect not named in the record; activity change, % (test concentration not listed); hit rate 0.49% among 340,000; in the data active means activity change below about -65%; inconclusive means about -30% to -65%; inactive means above about -30%; also: % is scaled to controls: 0 for no effect and ±100 for the full control effect; compound concentration not given in the record
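AlphaScreen with 125 nM GST-E1A and 125 nM His-CtBP (5X stocks) in Tris pH 8.0, 300 mM NaCl, BSA, Tween 20, TCEP. Compounds preincubated 2 h at 37 deg C, then glutathione donor/nickel acceptor beads added for 1 h at 37 deg C in dark.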
TRPV1 PAM – potentiators of human vanilloid receptor 1 (TRPV1); Q8NER1; TRPV1-expressing cells, Fluo-8 calcium influx, capsaicin EC20 potentiation; host cell line not named in the record; control for the full effect not named in the record; potentiation, % at 8.33 µM; hit rate 0.02% among 320,000; active means potentiation above 80%; inconclusive means 30% to 80%; inactive means below 30%; also: 0% is about no effect
Target sequence (Q8NER1 whole entry, looked up): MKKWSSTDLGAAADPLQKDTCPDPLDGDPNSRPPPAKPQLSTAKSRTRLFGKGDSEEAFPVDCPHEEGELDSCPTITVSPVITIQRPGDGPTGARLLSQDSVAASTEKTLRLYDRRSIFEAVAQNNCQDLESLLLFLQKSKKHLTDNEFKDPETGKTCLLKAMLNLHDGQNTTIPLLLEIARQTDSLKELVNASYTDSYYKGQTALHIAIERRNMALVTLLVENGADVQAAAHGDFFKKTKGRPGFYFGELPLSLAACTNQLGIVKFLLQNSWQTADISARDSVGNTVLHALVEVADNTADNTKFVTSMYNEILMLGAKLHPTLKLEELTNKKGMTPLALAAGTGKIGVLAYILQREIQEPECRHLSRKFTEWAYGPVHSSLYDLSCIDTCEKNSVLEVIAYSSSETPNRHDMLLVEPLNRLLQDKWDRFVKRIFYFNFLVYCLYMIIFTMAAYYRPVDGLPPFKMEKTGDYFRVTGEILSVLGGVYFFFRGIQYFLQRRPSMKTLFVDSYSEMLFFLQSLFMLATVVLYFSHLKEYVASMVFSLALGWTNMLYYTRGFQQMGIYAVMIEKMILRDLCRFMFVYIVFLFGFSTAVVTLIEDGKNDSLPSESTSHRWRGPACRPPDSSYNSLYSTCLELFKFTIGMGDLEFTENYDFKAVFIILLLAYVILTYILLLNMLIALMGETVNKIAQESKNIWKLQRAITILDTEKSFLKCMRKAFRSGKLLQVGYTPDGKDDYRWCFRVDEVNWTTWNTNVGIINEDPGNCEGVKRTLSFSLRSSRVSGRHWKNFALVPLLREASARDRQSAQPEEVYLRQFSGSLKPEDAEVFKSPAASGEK
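TRPV1-expressing cells were cultured overnight at 35.5C and loaded with Fluo-8 calcium dye for 40 to 90 min at room temperature. After a 10 s baseline, compound was added and calcium influx was read kinetically for 3 min (ex 480/em 520 nm).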
Starred values were filed as active, the others as inactive; ? = inconclusive; · = not tested or not shown.

SMILES | D2 potentiator | TRPML1 blocker | TRPML1 ag | Six1-Eya2 inh | CtBP-E1A inh | TRPV1 PAM
N#Cc1ccc(Oc2ccc(C#N)c(C#N)c2)cc1C#N | -10 | 4 | 2.8 | 1 | 7 | ·
Cc1ccc(NC(=O)CCN2C(=O)C3C4CCC(C4)C3C2=O)cc1Cl (stereo unspecified) | -29 | 2 | -0.4 | -5 | 1 | -9
CN(CC(=O)O/N=C(\N)c1ccccn1)S(=O)(=O)c1ccc(Br)cc1 | 9 | 0 | 0.1 | -12 | -13 | 1
CC(NC(=S)Nc1ccccc1C(F)(F)F)C1CC2CCC1C2 (stereo unspecified) | -9 | 10 | 1.7 | -2 | 7 | -10
O=C(CCC1N=C2c3ccccc3N=C(SCc3ccccc3Cl)N2C1=O)NCc1ccco1 (stereo unspecified) | -3 | -9 | -0.2 | -10 | -25 | 23
CC(C)(C)c1nc2c(s1)CCc1onc(-c3ccc(Cl)cc3)c1-2 | -11 | -8 | 0.2 | 3 | 8 | ?
CCCCN(C(=O)/C=C/c1ccco1)c1c(N)n(Cc2ccccc2)c(=O)[nH]c1=O | 1 | 3 | -0.3 | -3 | -9 | 11
COc1cc(C2C(C#N)=C(N)Oc3cc(C)n(CC4CCCO4)c(=O)c32)cc2c1OCO2 (stereo unspecified) | 6 | 11 | -0.5 | 5 | -2 | 6
CC(=O)NC(C)(c1ccccc1)c1nc(-c2ccncc2)cs1 (stereo unspecified) | -5 | · | -0.4 | 1 | 2 | ·
COc1ccc(NC(=O)c2cc(S(=O)(=O)N3CCCCC3)ccc2C)cc1S(=O)(=O)N1CCOCC1 | -11 | -8 | 0.7 | -15 | -10 | ·
Cc1cc2ncn(-c3ncnc4sc5c(c34)CCC(C)C5)c2cc1C (stereo unspecified) | -3 | -1 | -0.2 | 1 | 9 | -2
CC(C)C[C@H]1COc2cc(N3CCC[C@@H]3CO)ccc2S(=O)(=O)N1 | · | · | -0.8 | -1 | -1 | ·
O=C(COC(=O)C1(c2ccccc2F)CCCC1)NCc1ccc2c(c1)OCO2 | -14 | 47 | 2.4 | 0 | -2 | -11
CC(C)(C)C(=O)NC(=S)Nc1ccccc1C(=O)Nc1ccccc1 | -15 | -10 | 0.2 | 3 | 11 | 10
CCc1c(C)nc2ncnn2c1NCCc1ccccc1 | 10 | -11 | 1.6 | -7 | -1 | -3
COC(=O)[C@H](Cc1ccccc1)N(C)S(=O)(=O)c1cccc(S(=O)(=O)N(C)[C@@H](Cc2ccccc2)C(=O)OC)c1 | -5 | 23 | 3.3 | 5 | -20 | -5
CCOC(=O)C1CCCN(C2=NC(=O)/C(=C/c3ccc(OC)cc3)S2)C1 (stereo unspecified) | -6 | 5 | 0.0 | 2 | · | -4
Cc1ccc(NC(=O)c2csc(-c3ccccc3)c2C)cc1 | 1 | 22 | -0.8 | 5 | 6 | 18
COc1ccc(NC(=S)N2CCC(N(C)CCN3CCOCC3)CC2)cc1Cl | -10 | 20 | -0.1 | -13 | -6 | 2
C[C@@H]1CCC[C@@]2(O[C@H](CCO)C[C@@H](O)[C@@H]2O)O1 | -4 | 16 | -0.6 | -3 | 5 | -2
Cc1ccc2sc(N(CCCN(C)C)C(=O)c3ccc(S(=O)(=O)N4CCCCCC4)cc3)nc2c1C | -2 | 15 | 15 | -19 | -30 | -12
Cc1cccc(NS(=O)(=O)c2coc(C(N)=O)c2)c1C | 1 | -10 | 0.2 | 0 | 1 | 14
COc1ccc(N=C2C(=O)N3c4c(cccc42)C(C)=CC3(C)C)cc1 | -39 | 5 | 2.1 | -22 | -21 | 4
CCOc1ccc(CCN2C(=O)C(=O)N([C@@H](Cc3ccccc3)CN3CCC[C@H]3CN3C(=O)C(=O)NC[C@@H]3Cc3ccccc3)C[C@@H]2CC(C)C)cc1 | · | · | 5.3 | -9 | 0 | ·
OCCC1CN(CCCc2ccccc2)CCN1Cc1ccccc1 (stereo unspecified) | -12 | -7 | 0.5 | 1 | -2 | -3
O=C(Nc1nc2ccc(S(=O)(=O)N3CCCC3)cc2s1)C1CCCCC1 | 6 | 5 | 1.6 | 3 | 5 | 10
COCCN1C(=O)N[C@@H](c2cccs2)C(C(=O)OC)=C1C | -32 | 13 | -0.6 | 7 | -2 | 1
COc1ccc(N2CCN(CCCNC(=O)Cn3c(=O)c4cccn4c4ccccc43)CC2)cc1 | -46 | -1 | -0.4 | -10 | -20 | 6
CCN1CC(CN(C)Cc2nc(-c3ccc(C(F)(F)F)cc3)oc2C)CC1=O (stereo unspecified) | -4 | 8 | 0.8 | 1 | -1 | -4
Cc1ccccc1-c1nc(CN2CCC(C(=O)NC3CC3)CC2)c(C)o1 | -19 | 35 | 0.0 | -1 | 8 | 22
CCN(CC)S(=O)(=O)c1ccc(Cl)c(NC(=O)COC(=O)C2CCCCC2)c1 | -1 | 2 | 2.1 | 6 | 13 | -6
C[C@@H]1CCCCO[C@H](CN(C)C(=O)Nc2cccc3ccccc23)[C@@H](C)CN([C@H](C)CO)C(=O)c2cc(NC(=O)c3ccccc3)ccc2O1 | 2 | 17 | -0.6 | -1 | -1 | ·
Cc1cc(C)n(CC(C)NC(=O)c2cc(COc3c(F)cccc3F)on2)n1 (stereo unspecified) | 1 | 3 | -0.8 | 0 | 3 | 2
c1ccc2c(C3CCO3)cccc2c1 (stereo unspecified) | -6 | -1 | -0.9 | 1 | 1 | -5
O=C(Nc1cccc(S(=O)(=O)N2CCOCC2)c1)C1CCCC1 | -9 | -6 | -0.5 | 7 | · | -5
Cn1nnnc1SCC(=O)N1c2ccccc2CCc2ccccc21 | 1 | 2 | 1.3 | 2 | -16 | -8
CC(=O)Nc1nc(S(=O)(=O)c2ccc(C)cc2)c(Cl)s1 | 17 | -13 | 4.6 | 1 | 5 | -2
CCOC(=O)C[n+]1c(C)sc2ccc(OC)cc21 | -53 | -3 | 1.0 | -19 | -17 | -16
C=C(C)Cn1c2ccc(NC(=O)CCc3cccc(Cl)c3)cc2c(=O)n1C | ? | 2 | -0.1 | 2 | 3 | ·
O=C(CSCc1n[nH]c(=O)[nH]1)NCCOc1cccc(Oc2ccccc2)c1 | -5 | -4 | -0.7 | -2 | 6 | 3
CC(=O)NNC(=O)CC(=O)Nc1nc(C23CC4CC(CC(C4)C2)C3)cs1 | -17 | 14 | 0.0 | -2 | -15 | 4
Cc1ccc(Cn2c(N3CCN(C)CC3)nc3c2c(=O)[nH]c(=O)n3C)cc1 | -16 | -5 | 0.1 | 6 | 11 | 18
O=C(Nc1cccc(F)c1)NC1CCCCCCC1 | -22 | 6 | 0.1 | 10 | 12 | -6
CN(Cc1ccccc1)S(=O)(=O)c1cccc2cccnc12 | 2 | -9 | -0.1 | 30 | 4 | 15
CC(C)NC(=O)c1cc(C2CCCCN2C(=O)c2ccc(C#N)cc2)on1 (stereo unspecified) | 16 | · | -0.4 | 5 | 7 | ·
Cc1ccc(/C=C2/N=C(c3ccccc3)NNC2=O)cc1 | -24 | 18 | 2.2 | 2 | -18 | -1
O=C(O)CSCC(=O)Nc1ccc(S(=O)(=O)N2CCCCC2)cc1 | -14 | -12 | 1.8 | 6 | 4 | 9
COC(=O)C1=C(C)N(C)C(=O)NC1c1ccc([N+](=O)[O-])o1 (stereo unspecified) | -7 | -3 | 0.1 | 0 | · | 1
COC(=O)[C@]12CCCCC=C1N(Cc1ccc(Cl)cc1Cl)C(=O)[C@H](CC(=O)NCc1cccc3ccccc13)C2 | · | · | -0.3 | -10 | -11 | ·
COc1ccc(CNC(=O)CSCc2c(F)cccc2Cl)cc1 | -10 | 10 | -0.2 | 5 | 7 | -9
(list continues)
SMILES | D2 potentiator | TRPML1 blocker | TRPML1 ag | Six1-Eya2 inh | CtBP-E1A inh | TRPV1 PAM
Cc1cccc(NS(=O)(=O)c2ccc(Oc3ccccc3)cc2)n1 | 13 | 3 | -1.1 | -2 | 2 | -6
CNc1nc(NCc2ccccc2)c2ccccc2n1 | -25 | 12 | 15 | -4 | -3 | 4
Cn1nc([N+](=O)[O-])nc1Oc1ccc2ccccc2c1 | 3 | 0 | 0.9 | 7 | 5 | 3
CCOC(=O)N1CCN(C(=O)c2ccc(N3C(=O)c4ccccc4C3=O)cc2)CC1 | -21 | -8 | 1.1 | 4 | -4 | 5
COC(=O)C1=C(C)N(CCc2ccc(OC)c(OC)c2)C(=O)/C1=C\c1ccc(O)cc1 | 4 | 2 | 0.2 | 2 | 2 | -1
COc1ccc(CNC(=O)c2cc3ccccc3oc2=O)cc1 | -5 | -6 | 2.4 | 0 | 0 | 2
Cc1c(OC(C)C(=O)NCCN2CCOCC2)ccc2c(-c3ccccc3)cc(=O)oc12 (stereo unspecified) | -8 | 4 | 1.8 | -3 | · | 6
CCCCCOC(=O)C1=C(C)NC(=O)NC1c1ccccc1 (stereo unspecified) | -1 | 37 | 4.0 | -1 | 15 | 3
